# From PubChem BioAssay
# CDC25B-CDK2 inh: human CDC25B-CDK2/CyclinA binding inhibition; HTRF CDC25B-CDK2/CyclinA binding, anti-His/anti-Flag; active compounds read high; P30305+P24941; 94,000 compounds, 0.72% hits; z-score (concentration not given with the values);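 further: score is relative to mean and SD of negative controls; strong numbers were not always called active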
# TAR Tat displ: HIV-1 TAR-Tat binding disruption. HIV-1 TAR RNA, Tat peptide displacement FRET; active compounds read high. z-score (concentration not given with the values). 100,000 compounds, 0.6% hits. AID 1259389;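 further: score is relative to mean and SD of negative controls; some compounds called inactive have numbers as strong as hits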
# The depositor's hits bear a star; . = not tested or not shown.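 How the source made its calls: active means z-score from 3 up in half or more of its runs; inactive means the rest.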
SMILES,CDC25B-CDK2 inh,TAR Tat displ
CCOCCCN(Cc1ccco1)C(=O)c1cc2c(s1)-c1ccccc1OC2,-0.06,-1.3
O=c1c2c(-c3ccc(Cl)cc3)csc2ncn1Cc1cccnc1,0.46,1.7
Cn1c(=O)c2c(-c3ccccc3Br)n(C3CCCC3)cc2n(C)c1=O,-2,1.3
COc1ccc(CNc2nc(-c3cccc(OC)c3)no2)cc1,.,0
CCn1cc(C(=O)OCc2cc(C)ccc2C)c(=O)c2ccc(C)nc21,.,0.05
O=C(Nc1cccc(F)c1)c1[nH]nc2c1CCc1ccccc1-2,.,0.31
CCc1nnc2c3ccccc3nc(NCCc3ccccc3)n12,-2.8,-0.75
O=C(c1ccc(Cl)cc1)N(Cc1ccccc1)Cc1cccnc1,-2.2,.
COc1ccc(CCN2C(=O)c3cccnc3C2=O)cc1OC,0.36,.
O=C(Nc1ccc2oc(-c3cccc4c(Br)cccc34)nc2c1)c1cccnc1,1.1,-0.34
COc1ccc2ccccc2c1-c1cc(C(=O)N/N=C(\C)c2cccc3ccccc23)[nH]n1,-1.1,.
O=c1c2nnn(Cc3ccc(Cl)cc3)c2ncn1Cc1cccc(F)c1,-0.08,0.94
CC1CC(C)CN(CCCNC(=O)CN2C(=O)CSc3ncccc32)C1 (configuration not stated),0.3,-0.04
Cc1cccc(NS(=O)(=O)c2cn(C)cn2)n1,.,1.2
Cc1cc2c3c([nH]c2cc1S(=O)(=O)NC1CCC(C)CC1)CCCC3=O (configuration not stated),.,8.3
CCOC(=O)c1cc(S(=O)(=O)Nc2ccc(Br)c(C)c2)[nH]n1,.,1.7
Cc1ccc2c(C)c(C(=O)N(Cc3ccccc3F)C3CCS(=O)(=O)C3)oc2c1C (configuration not stated),-2.7,0.2
Cn1c2c(c(=O)n(C)c1=O)CN(CCc1ccccc1)CN2,-0.37,-0.38
O=C(NCc1ccccn1)c1cccnc1SCCS(=O)(=O)c1cccc(C(F)(F)F)c1,1.8,.
CCCCN1C(=O)C2C(C(=O)Nc3cccc(SC)c3)C3C=CC2(O3)C1C(=O)NC1CCCCC1 (configuration not stated),-1.7,-1.2
Cc1ccc(-c2nc(CN3N=C(c4ccccc4)c4ccccc4S3(=O)=O)c(C)o2)cc1,1.6,0.22
CCCOc1ccc(N2C(=O)CC(NC3CCN(c4ccc(Cl)nn4)CC3)C2=O)cc1 (configuration not stated),-0.44,0.05
CCN(CCO)CCNc1cc(N2CCCC(C)C2)c2noc3c2c1C(=O)c1ccccc1-3 (configuration not stated),-2.1,0.96
COc1ccc(Cl)cc1S(=O)(=O)n1ccnc1,-2,-0.14
CC(=O)N1c2ccc(S(=O)(=O)N3CCCC4CCCCC43)cc2CC1C (configuration not stated),.,1.4

# Next part
SMILES,CDC25B-CDK2 inh,TAR Tat displ
COc1ccc2nc(SCC(=O)Nc3nc4ccc(OC)cc4s3)[nH]c2c1,-1.5,0.41
COc1cc(OC)c(-n2nnc(-c3nc(-c4ccc5c(c4)OCO5)no3)c2C)cc1Cl,.,0.66
O=C1c2cccc3c(N4CCOCC4)ccc(c23)C(=O)N1c1ccc(O)cc1,-0.27,-4.2
COc1cccc(-c2nc(=S)c3c([nH]2)Oc2c(O)cc(C(C)(C)C)cc2C3)c1OC,-1.1,1.9
CSc1nnc(SC)n1CCNS(=O)(=O)c1cccc(Cl)c1,-2.2,.
CCOC(=O)c1cnn(-c2ccccc2)c1NC(=O)Nc1cccc(Cl)c1,-1.2,.
Cc1cccc(-c2c3c(=O)n(C)c(=O)n(C)c3c3n2C(C)(C)COC3c2coc3ccccc3c2=O)c1 (configuration not stated),0.61,1.1
CCOC(=O)c1c(NC(=O)CSc2cc(C)ncn2)sc(C)c1C,0.49,-0.52
CCCn1c(=O)c2c(nc3n2CCN3c2ccc(OC)cc2)n(C)c1=O,-2.6,-0.2
Cc1ccc(C(CNC(=O)c2cc(=O)c3ccc(C)c(C)c3o2)N2CCCC2)o1 (configuration not stated),0.74,0.98
O=C(NCCCn1c(C(F)(F)F)nc2cccnc21)Nc1ccc(Cl)cc1,.,1.6
O=C(NCC1COc2ccccc2O1)C(=O)Nc1cccc(Br)c1 (configuration not stated),-1.4,-1.2
CN1CCc2c(sc(-n3cccc3)c2CNC(=O)NCc2ccc(F)cc2)C1,5.1,-7.6
Cc1ccc(-n2nc3ccc(N)cc3n2)cc1,-0.46,-0.96
O=C(CN1C(=O)CCC1=O)Nc1nc(-c2nc3ccccc3s2)cs1,.,1.1
CC12CCC3C(CC3(C)C)C(C)(CCC1=O)O2 (configuration not stated),.,1.9
COc1ccc(-c2cn3c4ccccc4n(CCN4CCCCC4)c3n2)cc1,-0.4,.
COC(=O)C1=C(C)NC2=C(C(=O)CC(c3ccc(OC)cc3)C2)C1c1cccc2ccccc12 (configuration not stated),0.03,0.75
Cc1ccc(-n2c(C)nc3c(cnn3-c3ccc(Cl)cc3)c2=O)cc1,-0.86,.
O=c1oc2c3c(ccc2c2ccccc12)OCN(Cc1ccc(F)cc1)C3,-0.75,1.9
COc1ccc(CCNc2nc(-c3ccc(OC)c(OC)c3)cs2)cc1OC,-0.27,-2.1
COc1ccc(OC)c(N2C(=O)c3cccnc3C2Nc2ccc3c(c2)OCO3)c1 (configuration not stated),.,-0.36
CCN(CC)CCNS(=O)(=O)c1cc(-c2onc(C)c2C)ccc1OC,.,0.22
Cn1c(=O)oc2cc(NS(=O)(=O)c3ccccc3Cl)ccc21,.,-0.82
O=C(Cn1c(=O)n(CCc2ccccc2)c(=O)c2sc3ccccc3c21)NC1CCCC1,2,1.9

# Part of the list above, with two lines to a compound:
# Each structure is followed by: CDC25B-CDK2 inh	TAR Tat displ
COc1ccc(CCNc2nc(-c3ccc(OC)c(OC)c3)cs2)cc1OC
 : -0.27	-2.1
COc1ccc2nc(SCC(=O)Nc3nc4ccc(OC)cc4s3)[nH]c2c1
 : -1.5	0.41
Cc1ccc(-n2c(C)nc3c(cnn3-c3ccc(Cl)cc3)c2=O)cc1
 : -0.86	.
CCN(CC)CCNS(=O)(=O)c1cc(-c2onc(C)c2C)ccc1OC
 : .	0.22
CCOC(=O)c1c(NC(=O)CSc2cc(C)ncn2)sc(C)c1C
 : 0.49	-0.52
CCOC(=O)c1cnn(-c2ccccc2)c1NC(=O)Nc1cccc(Cl)c1
 : -1.2	.

# One compound at a time, from the list above.
# Results for COc1ccc(OC)c(N2C(=O)c3cccnc3C2Nc2ccc3c(c2)OCO3)c1 (configuration not stated) : CDC25B-CDK2 inh: .; TAR Tat displ: -0.36
# Results for CSc1nnc(SC)n1CCNS(=O)(=O)c1cccc(Cl)c1 : CDC25B-CDK2 inh: -2.2; TAR Tat displ: .
# Results for O=C(NCCCn1c(C(F)(F)F)nc2cccnc21)Nc1ccc(Cl)cc1 : CDC25B-CDK2 inh: .; TAR Tat displ: 1.6

# More entries.
SMILES,CDC25B-CDK2 inh,TAR Tat displ
COc1ccc(NC2=NS(=O)(=O)C(c3ccc(C)c(C)c3)=C2C)cc1OC,-0.82,0.84
c1coc(-c2nc3c4c5c(sc4ncn3n2)CCCC5)c1,-0.75,.
CCCCN1C(=O)C2(/C(=C(/O)c3ccccc3)C(=O)C(=O)N2CCCN(C)C)c2ccccc21 (configuration not stated),0.15,-0.82
CN(C(=O)c1nn(C)c2c1CS(=O)(=O)c1ccccc1-2)c1cccc(Cl)c1,-2.6,0.94
Oc1ccccc1CNc1nc2ccccc2n1CCN1CCOCC1,-0.63,-0.51
Cn1cccc1-c1cc2n(n1)CCCN2C(=O)CCC(=O)NC1CC1,.,1.1
CCOC(=O)N1CCN(C(=O)C2CCN(c3nc4c(C)cc(C)cc4s3)CC2)CC1,-0.87,1.4
Cc1c(/C=N/NC(=O)NCc2ccccc2)sc2ccccc12,-1.6,.
CCOc1ccccc1Nc1nc2ccc(C)cc2n2cnnc12,0.26,-0.71
CCOC(=O)N1CCN(C(=O)C(NC(=O)C2CCC(C)CC2)C(C)C)CC1 (configuration not stated),-0.59,-0.83
Cc1nc(N2CCOCC2)cc(N2CCN(S(=O)(=O)c3cccc(Cl)c3)CC2)n1,-0.98,0.43
Cc1noc(-c2ccc(-c3noc(Cc4c(F)cccc4Cl)n3)cc2)n1,.,2.8
O=C1CC(c2ccccc2OCc2ccccc2)c2cc3c(cc2N1)OCO3 (configuration not stated),0.56,0.53
COc1cc(NC(=O)c2ccc(N3CCSc4ncccc43)s2)cc(OC)c1,.,0.9
O=C1CSc2ccc(S(=O)(=O)N3CCN(c4ccccc4)CC3)cc2N1,.,3.1
Cc1ccc(-c2onc(C)c2C)cc1S(=O)(=O)NCCc1ccc(Cl)cc1,.,1.5
Cc1c(C)c(C)c(CSCC(=O)N/N=C/c2ccncc2)c(C)c1C,-2,.
CC1CC(N2CNC(=S)NC2)CC(C)(C)C1 (configuration not stated),-0.39,.
Cn1cccc1Cc1nnc(SCC(=O)Nc2ccc3c(c2)OCO3)n1-c1ccccc1,-0.05,-1.4
O=C1c2ccccc2C(Nc2cc(F)ccc2F)N1c1ccc(Cl)cn1 (configuration not stated),-1,0.66
FC(F)(F)c1ccc(-c2nnc(-c3ccc4c(c3)OCO4)o2)cc1,-2,.
COc1ccc(C(=O)c2cn(Cc3cccc(OC)c3)c3cc(OC)c(OC)cc3c2=O)cc1,-0.99,1.6
O=c1oc2cc(O)ccc2c2oc3cc(O)ccc3c12,.,3.2
O=C(c1ccc(CS(=O)c2ccccc2Cl)o1)N1CCc2ccccc21 (configuration not stated),.,1.3
CCOc1ccc2nc(NC(=O)c3cc4ccc5cccnc5c4[nH]3)sc2c1,.,1

# Retrieved by compound from the list above:
SMILES,CDC25B-CDK2 inh,TAR Tat displ
COc1ccc(NC2=NS(=O)(=O)C(c3ccc(C)c(C)c3)=C2C)cc1OC,-0.82,0.84
O=C1c2ccccc2C(Nc2cc(F)ccc2F)N1c1ccc(Cl)cn1 (configuration not stated),-1,0.66

# Other records:
SMILES,CDC25B-CDK2 inh,TAR Tat displ
O=S1(=O)NC(c2ccc(Cl)c(F)c2)Nc2ccccc21 (configuration not stated),.,1.2
O=C1C2CCCN2C(c2ccc(F)cc2)N1c1ccc(Cl)cc1 (configuration not stated),-0.75,-0.89
Cc1nc2c3ccccc3n3c(CCCC(=O)NC4CCCCC4)nnc3n2n1,-0.82,0.5
CC1C(=O)C(C)C(c2ccc3c(c2)OCO3)NC1c1ccc2c(c1)OCO2 (configuration not stated),0.32,.
CC(C)(C)/C=N/N/C=C(\C#N)S(=O)(=O)C(C)(C)C,-1.8,.
Cc1ccc(C2CC(c3cccc(Cl)c3)n3nc(N)nc3N2)cc1 (configuration not stated),-1.6,0.74
CCOC(=O)c1c(NC(=O)c2csnn2)sc2c1CCC2,-1.3,0.69
O=S1(=O)C[C@H](N2CCN(c3ccccn3)CC2)[C@@H](S(=O)(=O)c2cccs2)C1,-1.8,0.49
CN(C)CCN(C(=O)c1ccco1)c1nc2ccc(F)cc2s1,.,0.92
O=C1C(=O)N(c2nncs2)C(c2cccs2)/C1=C(/O)c1ccc(F)cc1 (configuration not stated),1.2,2.4
COC(=O)c1ccccc1NC1=NCCS1,-1.8,.
Cc1c(C)c(C)c(CSC2=[N+](Cc3ccccc3)CCN2)c(C)c1C,-3.1,.
O=C1CCC(C(=O)Nc2cccc(Br)c2)N1 (configuration not stated),-2.1,1.3
COc1ccc(Nc2nc(N3CCOCC3)nc(N3CCOCC3)n2)cc1Cl,0.16,.
COc1cc2[nH]c(=S)nc(NCCCN3CCCCC3C)c2cc1OC (configuration not stated),-2,.
CC(C)N1C(=O)CN(C2CCCCCC2)C(=O)C1c1ccc(F)cc1 (configuration not stated),-0.99,.
CC(Sc1ncc(CO)n1Cc1ccccc1)c1ccccc1 (configuration not stated),.,0.4
Cc1nnc(NC(=O)C(C)(C)C)s1,-0.92,0.27
CC(C)(C)c1ccc(-c2noc(CNS(=O)(=O)c3ccc(Cl)cc3)n2)cc1,0.64,0.4
CC(Sc1nc2ncnc(N)c2[nH]1)C(=O)Nc1ccc(F)cc1 (configuration not stated),-0.64,.
O=c1c2nccnc2nc(SCc2ccc(Cl)cc2)n1Cc1ccco1,-0.34,1.4
Nc1nc(NCCN2CCOCC2)nc(Nc2ccccc2)c1[N+](=O)[O-],.,1.6
CCOC(=O)C(C)Sc1nnc(CSc2nc(C)cc(C)n2)n1-c1ccc(F)cc1 (configuration not stated),-0.9,0.69
CCN1CCN(c2cc(NCc3ccco3)c3c4c(onc24)-c2ccccc2C3=O)CC1,0.89,-0.55
c1ccc(-c2nc(-c3ccc(-c4ccon4)s3)no2)cc1,-1.4,.

# Next section, overlapping the part above by 2 compounds.
SMILES,CDC25B-CDK2 inh,TAR Tat displ
CCN1CCN(c2cc(NCc3ccco3)c3c4c(onc24)-c2ccccc2C3=O)CC1,0.89,-0.55
c1ccc(-c2nc(-c3ccc(-c4ccon4)s3)no2)cc1,-1.4,.
O=c1c2ccccc2nnn1Cc1noc(-c2cccc(Cl)c2)n1,.,0.09
Cc1ccc(CNc2nc3ccc(Cl)cc3n3cnnc23)cc1,-0.69,-0.4
CCCCN(C)C(=O)C(C)n1nc(CC)n2c(cc3occc32)c1=O (configuration not stated),0.33,0.72
CCOC(=O)N1CCN(C(=O)CSc2nc3c(c(=O)n2-c2ccc(F)cc2)SCC3)CC1,-0.95,2.6
CCc1c(C)nc2ncnn2c1Nc1ccc(C(C)C)cc1,.,0.67
O=C(Cn1cnc2c(nnn2-c2cccc(Cl)c2)c1=O)NC1CCCC1,-0.38,0.26
CCn1nc(-n2cnnc2)c(NS(=O)(=O)c2ccc(Br)cc2C)c1C,-0.79,-0.01
Cc1ccnc(NS(=O)(=O)c2ccc(-c3cc(C)no3)s2)c1,.,0.36
Cc1nc(C)c(C(=O)N2CCN(c3ccc(-c4noc(C5CCC5)n4)cc3)CC2)s1,.,0.27
COc1ccc(-c2cccc(NS(=O)(=O)c3cccc(F)c3)c2)nn1,.,0.84
COC(=O)C1=C(C)NC(=O)CC1c1ccc(F)c(Br)c1 (configuration not stated),-1.1,0.34
CCSCCOC(=O)C1=C(C)NC2=C(C(=O)CC(C)(C)C2)C1c1ccc(OC(C)=O)c(OC)c1 (configuration not stated),-1.7,-0.42
